Mtb hypoxia rep – reduces hypoxia-regulated biosensor signal in M. tuberculosis | AID 1159583 | M. tuberculosis hypoxia-regulated fluorescent reporter, fluorescence | fluorescence inhibition, % (test concentration not listed) | actives 0.1% (n = 300,000);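 active means 35 to 45% if threefold the growth effect, above 45% if 1.5-fold the growth effect; inactive means the rest, general growth blockers included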;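 further: wells of about 50 µL received 100 nL stock; 0% = vehicle wells and 100% = reference inhibitor wells; whole bacteria with a GFP reporter of the hypoxia response; strong numbers were not always called active; many hits fall short of the cut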
RN4220 kill – S. aureus RN4220 growth inhibition; inhibition, % (no concentration beside the values); actives 0.33% (n = 330,000); OD600, 16 h;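 active means z-score of -3 or lower and OD600 up to 0.18 on both plates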;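 further: plate controls were untreated cells for no effect and reference antibiotic for full effect; stock transfer was 100 nL into about 80 µL; one replicate is shown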
Autofluor counter – flagged as autofluorescent in microsphere protease counterscreen; compound autofluorescence counterscreen, microsphere flow cytometry; hits give high values; fluorescence intensity (test concentration not listed); actives 3.1% (n = 360,000); AID 624483;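 active means at least 3 SD above the mean of all compounds, about 16000 in these data; inconclusive means too few beads counted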;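 further: 100 nL of 1 mM stock went into each well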
ugtP null kill – kills S. aureus RN4220 lacking UgtP. S. aureus RN4220 ugtP deletion, OD600 growth, 16 h; some inactives read as strong as hits. growth inhibition, % (test concentration not listed). actives 0.54% (n = 330,000). AID 1259309;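 active means z-score under -3 and OD600 up to 0.15 on both plates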;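 further: plate controls were untreated wells for no effect and antibiotic for full effect; wells of about 80 µL received 100 nL stock; the first replicate is given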
PrP 5UTR inh – inhibition of PrP 5' UTR reporter expression | actives 0.35% (n = 340,000) | inhibition, % (concentration not given with the values) | cell-based PrP 5' UTR mRNA reporter, plate reader;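 active means every replicate at 50% or more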;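 further: 0 = median of the neutral control wells; tested in H4 reporter cells; numbers are from one replicate; inactives centre near -14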
BJeLR viability – kills HRASV12-expressing BJeLR cells. BJeLR (HRASV12) viability, CellTiter-Glo ATP luminescence, 48 h; reference of the scale not given here. inhibition, % (test concentration not listed). actives 0.17% (n = 300,000);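 active means replicate mean above 50%; inconclusive means above 50% but judged a plate artefact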;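 further: 50 nL library stock added to about 25 µL; numbers are from one replicate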
Mtb hypoxia rep growth – further read-out of Mtb hypoxia rep, marked with its call; growth inhibition, %; measured here: M. tuberculosis growth (absorbance);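 0% = vehicle and 100% = reference antibiotic; read after six days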
Active calls of the source: *; ? = inconclusive; nt = not tested or not shown.

SMILES | Mtb hypoxia rep | Mtb hypoxia rep growth | RN4220 kill | Autofluor counter | ugtP null kill | PrP 5UTR inh | BJeLR viability
CCOC(=O)C(C)N1N=C(/C=C/c2ccc(C)cc2)CCC1=O (stereo unspecified) | 4 | -2 | -0.3 | 15621 | 27 | -1 | 4
O=C(NC(=S)Nc1ccc(CN2CCOCC2)cc1)c1cccc(F)c1 | 6 | 2 | 2.2 | 5861 | 37 | -16 | -5
CSc1cc(C)nc(N(C)C(C)=O)n1 | 3 | 1 | 1.5 | 8098 | 3 | 0 | -4
CC(C)Oc1ccc(C(=O)NC2CCS(=O)(=O)C2)cc1 (stereo unspecified) | 12 | 16 | -10 | 2834 | -6 | -13 | -2
NNc1nnnc2c1sc1nc(N3CCOCC3)c3c(c12)CCCC3 | 5 | 11 | 2.2 | nt | 3 | nt | -4
O=C(NCCO)/C(=C\c1ccc([N+](=O)[O-])o1)NC(=O)c1ccccc1 | -5 | 2 | 8.1 | 3525 | 13 | -12 | -7
COc1ccc(N2CCCCn3c2nc2c3c(=O)n(C)c(=O)n2C)cc1 | 12 | 4 | 4.4 | 3254 | 14 | 4 | 3
CC(C)(C)S(=O)(=O)N1Cc2cc(=O)n(Cc3ccccc3)c(CCO)c2[C@H]1CCO | -5 | -3 | 6.4 | 3005 | 7 | -1 | nt
Cc1cc(NC(=O)CCC(=O)N(c2ccccc2)C(C(=O)NC2CCCC2)c2ccccc2F)no1 (stereo unspecified) | 13 | 9 | 6.4 | 5845 | 3 | -24 | 2
COc1ccc(/C=N/Nc2ccc(C(F)(F)F)cc2[N+](=O)[O-])cc1O | nt | nt | nt | 2565 | nt | -9 | -2
COC(=O)C1=C(C)N(C)C(=S)NC1c1c(OC)ccc2ccccc12 (stereo unspecified) | -2 | 0 | 4.1 | 4754 | 5 | 5 | -6
CCN1/C(=C/c2cccc[n+]2C)Sc2ccc(OC)cc21 | nt | nt | nt | 4053 | nt | 20 | 7
Cc1ccc(CNC(=O)CN2CCC(C(N)=O)CC2)cc1 | -2 | -1 | -1.6 | 4019 | 4 | -4 | -3
O=C(N/N=C/c1cccc2ccccc12)c1ccc(CN2CCOCC2)cc1 | nt | nt | nt | 3588 | nt | -3 | -4
O=C(NCc1ccco1)C1CCN(C(=O)Cc2ccccc2)CC1 | 6 | 1 | -13 | 2544 | -4 | -9 | -2
CC(C)(C)c1ccc(C(=O)NNC(=S)NC(=O)c2cccnc2)cc1 | -6 | 4 | 70 | 3781 | 36 | 9 | 13
O=C(CSc1nnc(NC(=O)c2ccco2)s1)Nc1ccc(F)cc1 | 12 | 2 | -2.1 | 4429 | 6 | -16 | -8
CCN(CC1CCCO1)C(=O)c1cc(COc2cc(C)c(Cl)c(C)c2)on1 (stereo unspecified) | 4 | 16 | -2.2 | 5653 | -13 | -34 | -4
COc1ccccc1N1CCN(C(CNS(=O)(=O)c2cccs2)c2cccnc2)CC1 (stereo unspecified) | 0 | 14 | -5.6 | 7108 | -2 | -21 | -9
O=C(O)C[C@H]1c2cc(C(F)(F)F)ccc2S(=O)(=O)N1Cc1ccccc1 | nt | nt | nt | 3076 | nt | -16 | 8
COc1ccc(C(=O)NCCCNC(=O)c2cc3ccccc3[nH]2)cc1OC | 7 | 2 | 2.5 | 3177 | -8 | 78* | -3
O=C(Nc1cccc(F)c1)/C(=C/c1ccco1)NC(=O)c1ccco1 | 0 | -6 | 0.9 | ? | 7 | -20 | 4
C/C(Cc1ccccc1)=N\NC(=O)CNC(=O)c1ccc(Cl)cc1Cl | nt | nt | nt | 3625 | nt | -47 | 3
Nc1nncn1C(=O)c1cccs1 | nt | nt | -1.4 | 3606 | 11 | -10 | nt
O=C(Nc1nnc(CCN2CCOCC2)s1)c1ccccc1 | -8 | 17 | 2.9 | 9735 | -1 | -10 | -7

A draw from above in order of formula weight, rising.
SMILES | Mtb hypoxia rep | Mtb hypoxia rep growth | RN4220 kill | Autofluor counter | ugtP null kill | PrP 5UTR inh | BJeLR viability
CC(C)(C)c1ccc(C(=O)NNC(=S)NC(=O)c2cccnc2)cc1 | -6 | 4 | 70 | 3781 | 36 | 9 | 13
NNc1nnnc2c1sc1nc(N3CCOCC3)c3c(c12)CCCC3 | 5 | 11 | 2.2 | nt | 3 | nt | -4
CCN(CC1CCCO1)C(=O)c1cc(COc2cc(C)c(Cl)c(C)c2)on1 (stereo unspecified) | 4 | 16 | -2.2 | 5653 | -13 | -34 | -4

Quoted at random: two entries already listed, in no set order.
SMILES | Mtb hypoxia rep | Mtb hypoxia rep growth | RN4220 kill | Autofluor counter | ugtP null kill | PrP 5UTR inh | BJeLR viability
CCN(CC1CCCO1)C(=O)c1cc(COc2cc(C)c(Cl)c(C)c2)on1 (stereo unspecified) | 4 | 16 | -2.2 | 5653 | -13 | -34 | -4
Cc1cc(NC(=O)CCC(=O)N(c2ccccc2)C(C(=O)NC2CCCC2)c2ccccc2F)no1 (stereo unspecified) | 13 | 9 | 6.4 | 5845 | 3 | -24 | 2

(list continues)
SMILES | Mtb hypoxia rep | Mtb hypoxia rep growth | RN4220 kill | Autofluor counter | ugtP null kill | PrP 5UTR inh | BJeLR viability
CCOC(=O)c1c(C)nc2ccccc2c1C | nt | nt | 2.0 | 5668 | 0 | -17 | -2
CN1CC(=O)N(CC(=O)Nc2cccc(S(=O)(=O)N3CCOCC3)c2)C1=O | -2 | 0 | 3.3 | 3319 | -1 | -10 | 4
COc1ccc(C2COc3cc(O)ccc3C2)c(OC)c1O (stereo unspecified) | nt | nt | 1.5 | 4175 | 6 | -3 | -6
O=C(Nc1cccc([N+](=O)[O-])c1)c1ccc2nsnc2c1 | 2 | -3 | 2.5 | ? | 2 | -1 | -4
COc1ccc2[nH]c(C(=O)N3CCC(n4nccc4NC(=O)C4CC4)CC3)c(C)c2c1 | 2 | 7 | 2.3 | 5407 | -5 | -12 | 1
CCOC(=O)C(=NNc1ncnc2ccccc12)c1ccc(C)cc1 | -3 | -1 | 4.0 | nt | -4 | nt | nt
O=C(O)C1CCCN1S(=O)(=O)c1ccc2ccccc2c1 (stereo unspecified) | -2 | 3 | 8.3 | 6697 | 7 | -15 | -14
CCOc1ccc(NC(=O)c2ccc(Cn3nc(C)cc3C)o2)cc1 | 6 | 4 | 1.2 | 5216 | -2 | -7 | 3
CN(C)c1ccnc(-n2cccc2/C=N/OCc2ccc(F)cc2Cl)c1C#N | nt | nt | nt | 2861 | nt | -2 | -5
CCC(=O)NC(c1cc(Cl)c2cccnc2c1O)C(C)C (stereo unspecified) | 14 | 7 | -3.2 | 4091 | -18 | 18 | nt
COc1ccccc1/C=N/NC(=O)c1cc2c(OC)c(OC)ccc2[nH]1 | nt | nt | nt | 4130 | nt | -35 | 23
COc1cc(OC)c(NC(=O)c2sc3ncn(CC(=O)N4CCN(c5ccccn5)CC4)c(=O)c3c2C)cc1Cl | 4 | 0 | -4.8 | 5828 | -14 | -36 | 5
COC(=O)c1ccc(N2CCN(S(=O)(=O)c3ccc(C)cc3)CC2)c([N+](=O)[O-])c1 | 8 | 6 | 4.8 | 3451 | -6 | -26 | 0
CC1O[C@@H]2O[C@](O[C@H](C)CC[C@@H](C)O)(c3ccccc3)O[C@@H]2C[C@H]1O (stereo partly specified) | nt | nt | nt | 2958 | nt | -25 | -17

Taken from the listing (three entries):
SMILES | Mtb hypoxia rep | Mtb hypoxia rep growth | RN4220 kill | Autofluor counter | ugtP null kill | PrP 5UTR inh | BJeLR viability
COc1cc(OC)c(NC(=O)c2sc3ncn(CC(=O)N4CCN(c5ccccn5)CC4)c(=O)c3c2C)cc1Cl | 4 | 0 | -4.8 | 5828 | -14 | -36 | 5
COC(=O)c1ccc(N2CCN(S(=O)(=O)c3ccc(C)cc3)CC2)c([N+](=O)[O-])c1 | 8 | 6 | 4.8 | 3451 | -6 | -26 | 0
CC1O[C@@H]2O[C@](O[C@H](C)CC[C@@H](C)O)(c3ccccc3)O[C@@H]2C[C@H]1O (stereo partly specified) | nt | nt | nt | 2958 | nt | -25 | -17

Entries of single compounds from above. Values in the order: Mtb hypoxia rep, Mtb hypoxia rep growth, RN4220 kill, Autofluor counter, ugtP null kill, PrP 5UTR inh, BJeLR viability
Record of CN1CC(=O)N(CC(=O)Nc2cccc(S(=O)(=O)N3CCOCC3)c2)C1=O → -2, 0, 3.3, 3319, -1, -10, 4
Record of O=C(O)C1CCCN1S(=O)(=O)c1ccc2ccccc2c1 (stereo unspecified) → -2, 3, 8.3, 6697, 7, -15, -14
Record of CN(C)c1ccnc(-n2cccc2/C=N/OCc2ccc(F)cc2Cl)c1C#N → nt, nt, nt, 2861, nt, -2, -5
Record of O=C(Nc1cccc([N+](=O)[O-])c1)c1ccc2nsnc2c1 → 2, -3, 2.5, ?, 2, -1, -4
Record of COc1ccc(C2COc3cc(O)ccc3C2)c(OC)c1O (stereo unspecified) → nt, nt, 1.5, 4175, 6, -3, -6

From PubChem BioAssay
